Bioassay records deposited in PubChem BioAssay by National Center for Advancing Translational Sciences (NCATS).
StopGo reporter – FMDV 2A StopGo reporter, luciferase signal; human cells with a luciferase reporter of 2A StopGo recoding; control for the full effect not named in the record; Potency, µM (doses to about 57.9 µM), for inactives: at the highest dose signal change, negative = less light; 410,000 compounds, 1.2% hits; active = well fitted falling curve with a large enough effect; inconclusive = small, poorly fitted or top-dose-only effect; inactive = no such curve, though single readings can be large or run the other way; tested in HEK293T cells; further: on the % scale 0 is the no-effect control and ±100 the full control effect; nearly all actives have a fitted effect of over 45% in size; luciferase light after 4 h
SARS PLpro yeast – blocks SARS-CoV papain-like protease in a yeast assay; S. cerevisiae expressing SARS-CoV PLpro, growth rescue; control for the full effect not named in the record; Potency, µM (doses to about 32.9 µM), inactives show top-dose activity, positive = growth rescue; 330,000 compounds, 0.19% hits; AID 485353; further: 0% is about no effect; nearly all actives have a fitted effect of over 55% in size; growth read by luminescence after 48 h
Lassa entry inh – Lassa virus entry inhibition | Lassa virus pseudotype entry inhibition, cell reporter; control for the full effect not named in the record | Potency, µM (doses to about 37.9 µM), for the others: at the top dose activity change, negative = inhibition, usual class: inhibitors | 300,000 compounds, 1.2% hits; active means well fitted inhibition curve with a large enough effect; inconclusive means small, poorly fitted or top-dose-only effect, or effect the other way; inactive means flat fitted curve, though single readings scatter; tested in HEK293 cells; further: on the % scale 0 is the no-effect control and ±100 the full control effect; nearly all actives have a fitted effect of over 50% in size; luciferase read-out
Cruzain inh Det – inhibitors of Trypanosoma cruzi cruzain with detergent; P25779; purified cruzain, Z-FR-AMC fluorescence, 0.01% Triton; Potency, µM, without a hit: max response, negative = inhibition, hits mostly inhibitors; 200,000 compounds, 0.43% hits; AID 1478; active means well fitted curve in the direction sought with a large enough effect; inconclusive means small, poorly fitted or top-dose-only effect, or another doubt; inactive means no such curve, though single readings can be large; an effect the other way counts as inactive or inconclusive;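 further: plate controls were neutral wells for no effect and buffer without enzyme for full effect; nearly all actives have a fitted effect of over 40% in size; top concentration of the series not given in the record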
Target sequence (P25779 123-467 limits assumed): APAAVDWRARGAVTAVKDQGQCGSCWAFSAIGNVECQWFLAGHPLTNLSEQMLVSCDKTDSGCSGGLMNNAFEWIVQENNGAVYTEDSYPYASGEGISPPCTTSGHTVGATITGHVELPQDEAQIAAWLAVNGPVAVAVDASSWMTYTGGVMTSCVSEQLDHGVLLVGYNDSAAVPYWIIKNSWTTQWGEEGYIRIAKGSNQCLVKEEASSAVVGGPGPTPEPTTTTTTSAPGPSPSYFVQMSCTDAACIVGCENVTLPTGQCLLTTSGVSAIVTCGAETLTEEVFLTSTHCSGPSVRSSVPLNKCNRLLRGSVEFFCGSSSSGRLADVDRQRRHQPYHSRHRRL
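Cysteine protease activity tested under reducing, mildly acidic conditions (100 mM sodium acetate pH 5.5, 5 mM DTT) plus 0.01% Triton X-100. Cruzain 1.5 nM; substrate Z-FR-AMC 2 uM; 15 min compound preincubation at room temperature.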
NS1 inh – inhibitors of influenza NS1 protein function | 270,000 compounds, 0.4% hits | AID 2326 | S. cerevisiae slowed by influenza A NS1, growth recovery by OD600 | Potency, µM (highest dose often 46.1 µM), for inactives: at the top dose activity, positive = more growth; further: actives are rising curves; nearly all actives have a fitted effect of over 50% in size
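OD600 was taken as the measure of yeast growth restored by compound in an NS1-expressing S. cerevisiae strain. Cells had been washed out of glucose medium and diluted 1:100 into galactose -URA medium, pH 6.0.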
Marburg entry inh – inhibitors of Marburg virus binding or cell entry; 300,000 compounds, 1.8% hits; Potency, µM (top dose mostly 37.8 µM), for inactives: at the top dose activity change, negative = inhibition, most hits filed as inhibitors; Marburg virus pseudotyped entry inhibition, cell reporter; control for the full effect not named in the record; about a third of the inactives were read at about 46 µM; active = well fitted inhibition curve with a large enough effect; inconclusive = small, poorly fitted or top-dose-only effect, or effect the other way; inactive = flat fitted curve, though single readings scatter; tested in HEK293 cells; about a fifth of its hits are not listed in these tables; further: on the % scale 0 is the no-effect control and ±100 the full control effect; luciferase read-out
RE007 growth inh – less growth of the S. pombe RE007 Vpr strain. 360,000 compounds, 0.21% hits. AID 651644. Potency, µM (doses to about 92.2 µM), inactives show at the highest dose activity change, negative = less growth. S. pombe RE007 Vpr strain, BacTiter-Glo ATP luminescence, 24 h; control for the full effect not named in the record; active = well fitted falling curve with a large enough effect; inconclusive = small, poorly fitted or top-dose-only effect; inactive = no such curve, though single readings can be large or run the other way;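 further: on the % scale 0 is the no-effect control and ±100 the full control effect; nearly all actives have a fitted effect of over 50% in size; the assay follows cell death caused by Vpr and the record does not say whether a fall means rescue or toxicity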
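Fission yeast RE007 carrying one integrated HIV-1 vpr copy, seeded at OD 0.01 in PMG+AL medium with 23 nL pinned compound. Grown 24 h at 30 degrees; viability read by BacTiter-Glo luminescence after 5 min.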
Cruzain noTriton – blocks cruzain activity in detergent-free assay. Potency, µM, for inactives: max response, negative = inhibition, most hits filed as inhibitors. purified cruzain, Z-FR-AMC fluorescence, no detergent. P25779. 200,000 compounds, 2.3% hits; active means well fitted curve in the direction sought with a large enough effect; inconclusive means small, poorly fitted or top-dose-only effect, or another doubt; inactive means no such curve, though single readings can be large; an effect the other way counts as inactive or inconclusive;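 further: plate controls were enzyme without inhibitor for no effect and buffer without enzyme for full effect; nearly all actives have a fitted effect of over 40% in size; top concentration of the series not given in the record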
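Purified cruzain at 1.5 nM, pre-incubated 15 min with compound at room temperature in 100 mM sodium acetate pH 5.5, 5 mM DTT, 0.00005% Triton X-100. Reaction started with 2 uM Z-FR-AMC; AMC fluorescence increase over 60 s gives rate.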
Active calls of the source: *; u = inconclusive; x = no result given; [ ] = remark or other dose. Unless noted, the call rests on the fitted dose curve; in most records, active means well fitted rising curve with a large enough effect; inconclusive means small, poorly fitted or top-dose-only effect; inactive means no such curve, though single readings can be large or run the other way. Potency means the concentration at half of the fitted maximal effect.

SMILES | StopGo reporter | SARS PLpro yeast | Lassa entry inh | Cruzain inh Det | NS1 inh | Marburg entry inh | RE007 growth inh | Cruzain noTriton
O=C(NC1CCCCC1)C(c1ccncc1)N(C(=O)Cc1cccs1)c1ccccc1 (stereo not given) | 3.4% | 0.6% | 1.2% | x | 4.5% | -0.5%[46.1 µM] | -5.8% | x
O=C(C#Cc1ccccc1)Nc1cccc(F)c1 | 32.8%[activator] | -16.4% | 11.2µM* | x | -69.0% | u | u | x
NNC(=O)c1ccc(-c2ccccc2F)cc1 | 11.9% | -0.6% | x | x | 2.4% | x | -8.3% | x
O=C(OCC(=O)N1CCN(c2ccccc2)CC1)C1CCCN1S(=O)(=O)c1ccc(Cl)cc1 (stereo not given) | -8.5% | 1.6% | 0.7% | x | x | -16.3% | 2.0% | x
O=C(NC1CCCC1)C(c1ccncc1)N(C(=O)Cc1cccs1)c1ccc(F)cc1 (stereo not given) | -13.3% | -13.5% | -3.7% | x | 9.0% | -1.9%[46.1 µM] | -13.3% | x
O=C(CP(=O)(O)CC(=O)c1ccccc1)c1ccccc1 | 2.0% | -0.8% | 4.7%[46.1 µM] | x | x | -15.3%[46.1 µM] | 11.8% | x
COc1ccc(-n2c(N)cc(=O)nc2SCC(=O)NC2CCCCC2)cc1 | -0.7% | x | 0.1% | x | x | u | 7.1% | x
NC(=O)CSc1nnc(COc2cccc3ccccc23)o1 | 4.9% | -1.8% | x | x | -6.8% | x | -3.0% | x
OCC#CCSc1nnc(-c2ccncc2)o1 | 18.0% | 9.5% | 7.2% | -0.4% | -2.7% | -18.0% | 8.6% | 0.6%
C/C(=N\NC(N)=O)c1c(F)cccc1F | -2.8% | -0.1% | -6.1% | x | 3.1% | 9.1% | 4.3% | x
OCCN1CCN(CC(O)COCCOc2ccc(Br)cc2)CC1 (stereo not given) | -13.2% | 5.6% | u | 6.5% | 6.8% | u | -28.4% | 0.2%
Cc1cc(C)c(S(=O)(=O)c2cccc(C(F)(F)F)c2)c(=O)[nH]1 | 0.0% | 0.7% | u | x | -1.9% | 3.4% | 2.7% | x
Cc1cc(NC(=O)COC(=O)CNS(=O)(=O)c2ccc(C)c(C)c2)no1 | 7.0% | 2.2% | -2.4% | x | 19.0% | 13.6% | -16.2% | x
COc1ccc(-n2ncc3c2CC(C)(C)CC3NC(=O)CCn2cncn2)cc1 (stereo not given) | -5.5% | 4.3% | -2.6% | x | 3.4% | 6.5% | -6.0% | x
O=Cc1cccc2ccc3cccc(C(=O)O)c3c12 | 15.3% | x | -11.6%[46.1 µM] | x | x | 0.8%[46.1 µM] | -12.3% | x
N#CC(Sc1ccccn1)c1ccc(Cl)cc1 (stereo not given) | -17.7% | -2.9% | u | x | -2.3% | u | u | x
Cc1ccc(-n2c3c(cc(C(=O)NCC(=O)c4ccccc4)c2=O)C(=O)CCC3)cc1 | -25.8% | 0.2% | 1.9% | x | 10.7% | 10.0% | -15.1% | x
CC(C)(C)c1ccccc1NC(=O)CN1C(=O)NC2(CCCC2)C1=O | -17.5% | -0.5% | 11.9% | x | 7.7% | 18.5%[46.1 µM] | -8.2% | x
O=C1CCCN1CN(C(=O)c1ccccc1)c1ccccc1 | -9.2% | -0.6% | u | x | 2.0% | 23.9%[46.1 µM] | 4.1% | x
CCCN1CCN(CCCNC(=O)CCNC(=O)Cn2ccc3ccccc3c2=O)CC1 | 12.2% | -7.0% | 6.3% | 3.5% | -1.2% | 6.5% | 2.5% | -1.5%
CCC12CN3CCN(CC(C3)/C1=N/NC(=O)c1ccncc1)C2 | 4.0% | -3.5% | -0.2% | x | x | 5.0%[46.1 µM] | -6.2% | x
CCC(CC)C(=O)N1CC(=O)Nc2ccc(F)cc2C1c1ccc(F)cc1 (stereo not given) | -18.7% | 3.1% | x | x | 10.3% | x | -3.0% | x
CCCCCCSC1=C(C#N)C(c2ccc(O)cc2)CC(=O)N1 (stereo not given) | 0.0% | 0.3% | -11.0% | -5.2% | 0.5% | 9.4% | -3.3% | 5.1%
CCOc1cc2[nH]c(=S)n(C3CCN(Cc4ccccc4)CC3)c(=O)c2cc1OCC | 1.0% | 5.0% | 10.5%[46.1 µM] | x | x | 20.3%[46.1 µM] | 9.7% | x
O=C(c1ccc(-n2cnnn2)cc1)N1CCOCC1 | -18.4% | -2.3% | 8.1% | 4.5% | -4.5% | 9.1% | -5.6% | 6.6%
CCOC(=O)c1noc2ncn(Cc3ccc([N+](=O)[O-])cc3)c(=O)c12 | -21.1% | x | 8.2%[46.1 µM] | -2.6% | x | x | x | -0.5%
Cc1ccc(S(=O)(=O)NCC(=O)NCc2ccncc2)cc1 | 0.0% | 15.5% | -4.9% | 1.8% | -6.8% | 14.6% | 21.0% | 23.2%
O=C(NCCN1CCCCC1)Nc1ccc(F)cc1 | -17.4% | 1.6% | u | x | -4.2% | -9.9% | 1.5% | x
CCOC(=O)C1CCN(Cc2cn(C)nc2-c2ccc(Oc3ccccc3)cc2)CC1 | 3.0% | 0.9% | 18.7%[46.1 µM] | x | -2.6% | u | -7.2% | x
CCOc1ccc(NC(=O)CN(C)C(=O)c2cccnc2Sc2ccccc2Cl)cc1OCC | -26.3% | -2.5% | 3.0% | x | x | 0.0% | -11.6% | x
O=C(C1CCCN(S(=O)(=O)Cc2ccccc2)C1)N1CCc2ccccc21 (stereo not given) | u | 1.7% | -22.4% | -4.2% | -2.5% | u | -15.1% | 3.1%
CC(C)c1nnc(NC(=O)C2CCCN2C(=O)Nc2ccccc2)s1 (stereo not given) | -11.3% | 1.2% | 3.2% | x | -15.5% | -7.3%[46.1 µM] | -2.6% | x
O=C(CSc1nnc(-c2ccc(O)cc2)n1-c1ccccc1)CC(=O)Nc1ccccc1 | -17.8% | -3.9% | -14.9% | -1.0% | 10µM* | -19.9% | 4.4% | 6.4%
CN1C(=O)N(C)C(=O)C2(Cc3ccccc3N3CCOCC32)C1=O (stereo not given) | 0.1% | 0.5% | 0.8% | 5.5% | -0.6% | 15.6% | 15.2% | -12.4%
COc1ccccc1CNC(=O)CCCc1cn(C)c2ccccc12 | -15.3% | -0.9% | x | x | -7.4% | x | 4.4% | x
COCCCNC(=O)c1ccc([N+](=O)[O-])c(Cl)c1 | 0.0% | 13.5% | -8.8% | -2.5% | -5.3% | 18.3% | 0.1% | 4.0%
COC(=O)c1cc(N=Cc2c(O)c3ccccc3oc2=O)cc(C(=O)OC)c1 | -27.4% | 4.5% | x | x | 12.7% | x | 3.6% | x
Nn1c(SCC(=O)NCC2CCCO2)nnc1-c1ccco1 (stereo not given) | -8.0% | 0.5% | -2.1% | x | x | 25.6%[46.1 µM] | 0.2% | x
Cc1ccc2nc(N3CCC(C(=O)NCc4ccc(F)cc4)CC3)[nH]c2c1 | 20.9% | x | -3.5%[46.1 µM] | -1.8% | x | x | x | -7.7%
CCOc1ccc(C(C)=O)cc1CSc1nnnn1-c1ccc(O)cc1 | u | -4.7% | u | x | -0.3% | -2.0% | 9.7% | x
CN(C)c1ccc(CNC(=O)CCC(=O)N2Cc3ccccc3Oc3ncccc32)cc1 | -9.9% | x | -15.1%[46.1 µM] | -1.4% | x | x | x | -9.2%
O=C1CSC(c2ccccc2)N1Nc1nc(N2CCOCC2)nc(N2CCOCC2)n1 (stereo not given) | 4.7% | 1.4% | u | x | -5.7% | -14.9%[46.1 µM] | 9.7% | x
CC(=NNc1nc2ccccc2s1)c1ncccn1 | -15.8% | x | 1µM* | x | x | u | u | x
NC(=O)c1ccccc1NC(=O)/C=C/c1cccc(Cl)c1 | 2.8% | 0.4% | -3.5% | -3.8% | -7.8% | -0.3% | -11.7%[3.69 µM] | -0.7%
O=C(N[C@@H](Cc1c[nH]c2ccccc12)C(=O)O)c1ccccc1Cl | 18.0% | 4.6% | 12.1%[46.1 µM] | x | x | -8.0%[46.1 µM] | 10.2% | x
CCN(CC(=O)Nc1cccc(C(C)=O)c1)S(=O)(=O)c1ccc(OC)cc1 | u | 1.2% | -5.6% | -0.8% | -6.1% | u | 1.0% | -2.2%
Cc1ccc(NC(=O)C2CCCN(c3ncccn3)C2)cc1F (stereo not given) | 0.0% | -2.8% | 89.1%[14.3 µM] | -3.3% | -8.0% | 0.9% | -2.3% | 8.4%
COc1ccc(CCNC(=O)Cn2c(=O)c3cccn3c3ccccc32)cc1OC | -24.2% | x | u | -5.2% | x | x | x | u
COc1ccc(OC(C)=O)c(C2c3cc(OC)c(OC)cc3CCN2C(C)=O)c1 (stereo not given) | x | -6.0% | -5.6% | 3.0% | 13.7% | u | 12.0% | 12.8%
Cc1nc(-n2nc(C)c(CCC(C)C)c2C)sc1C(=O)Nc1cccc(Cl)c1 | -23.5% | x | -21.8%[46.1 µM] | -1.3% | x | -4.4%[46.1 µM] | x | -6.0%
COc1ccc(-n2c(C)c(C(C)=O)c3cc(OC(C)=O)ccc32)cc1 | -14.1% | 6.0% | x | x | 4.3% | x | 2.7% | x
COc1cccc(NS(=O)(=O)c2c(C)nc3sccn3c2=O)c1 | 11.3% | 9.2% | x | x | -4.8% | x | 6.0% | x
COc1ccccc1C(=O)N1CCC(N2CCN(c3ccccc3)CC2)CC1 | -7.2% | 0.6% | -4.8% | x | -0.4% | 8.6%[46.1 µM] | -16.9% | x
CC1(c2ccccc2Cl)NC(=O)N(CC(=O)NCCC2=CCCCC2)C1=O (stereo not given) | -13.8% | -0.4% | 3.6% | x | x | 3.1%[46.1 µM] | -12.7% | x
O=C1NC(CCc2ccccc2)C(=O)N1CCOc1ccccc1 (stereo not given) | -22.7% | 1.5% | x | x | 2.8% | x | -5.8% | x
COc1cc(OC)cc(C(=O)NC(=S)NNC(=O)c2cnccn2)c1 | -0.8% | x | u | 3.7% | 2.7% | u | 10.6% | 0.2%
